MLL AF4-AF9 inh: inhibitors of human MLL-AF4/AF9 interaction | P42568 | AlphaScreen, biotin-AF4 peptide binding to FLAG-AF9 | inhibition, % at 10 µM | actives 0.47% (n = 350,000);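 active = every replicate reaching a set inhibition limit, whatever the replicate mean, cut at about 25% in these data; inconclusive = mean inhibition reaches that limit but some replicates miss it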;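 also: 0% = plate neutral control median and 100% = total signal loss; the record names both 10 and 1 µM as test concentration; the first replicate is given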
Target sequence (P42568 whole entry, looked up): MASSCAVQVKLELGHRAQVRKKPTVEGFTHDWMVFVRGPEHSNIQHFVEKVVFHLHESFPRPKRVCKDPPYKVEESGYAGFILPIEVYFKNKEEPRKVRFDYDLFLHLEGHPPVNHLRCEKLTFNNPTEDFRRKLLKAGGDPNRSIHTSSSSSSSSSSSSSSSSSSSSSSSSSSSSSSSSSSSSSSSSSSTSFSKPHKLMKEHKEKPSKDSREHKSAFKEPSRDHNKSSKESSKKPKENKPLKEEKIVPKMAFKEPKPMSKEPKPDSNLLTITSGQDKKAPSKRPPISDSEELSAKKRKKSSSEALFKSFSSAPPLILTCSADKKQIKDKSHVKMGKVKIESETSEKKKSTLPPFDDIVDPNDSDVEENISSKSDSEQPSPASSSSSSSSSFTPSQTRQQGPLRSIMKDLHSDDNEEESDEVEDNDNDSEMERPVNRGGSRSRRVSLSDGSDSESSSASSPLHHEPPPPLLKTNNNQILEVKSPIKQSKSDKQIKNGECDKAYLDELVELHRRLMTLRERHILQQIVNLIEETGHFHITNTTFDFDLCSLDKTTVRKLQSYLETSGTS
FGF22 binding: FGF22 (human) thermal shift binding. Q9HCT0. recombinant FGF22 thermal shift, SYPRO orange fluorescence; percent of sucrose octasulfate shift, DMSO zero. calls only at 9.99 µM. actives 1.5% (n = 340,000). AID 651658;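 active = melting point raised past a set limit in the mean and every replicate; inconclusive = no clear call; three in four hits are not shown here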
Target sequence (Q9HCT0 whole entry, looked up): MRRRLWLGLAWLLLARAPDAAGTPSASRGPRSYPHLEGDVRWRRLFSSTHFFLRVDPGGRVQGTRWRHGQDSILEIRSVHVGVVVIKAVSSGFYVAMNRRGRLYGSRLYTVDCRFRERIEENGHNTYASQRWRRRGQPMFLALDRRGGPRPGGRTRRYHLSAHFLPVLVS
HNF4A DNA FP: change in binding of human HNF4 alpha to DNA. activity change, % at 10 µM. P41235. actives 0.3% (n = 360,000). HNF4a-FITC DNA binding, fluorescence polarization, 1 h. AID 1224865; in the data active = activity change above about 30%, passing the limit was not always enough;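 also: controls were the assay level and a saturating level of protein; the project sought stronger binding though the title names inhibitors; some compounds called inactive have numbers as strong as hits; positive values seem to mean higher polarization but the record does not say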
Vif TR-FRET: HIV-1 Vif–A3G interaction blockers – biochemical, TR-FRET, GST-Vif 1-94, biotin-A3G peptide, dose response retest, primary screen (AID 1117319). TR-FRET GST-Vif / biotin-A3G peptide binding; higher % means a stronger effect; test concentration not given here; strong numbers were not always called active. inhibition, %, or IC50 in µM where a hit was titrated. actives 0.57% (n = 260,000);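 active = above the screen mean plus three standard deviations and confirmed in dose response; inconclusive = results disagree or hit not tested in dose response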;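 also: Vif residues 1-94 fused to GST binding biotinylated APOBEC3G peptide 110-148; 0% = full assay without inhibitor and 100% = GST in place of GST-Vif; retest series ran down from 100 µM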
E coli growth: E. coli growth inhibition; Escherichia coli growth, OD600, 23 h; active compounds read low; OD600 absorbance (test concentration not listed); AID 1053175; actives 0.21% (n = 330,000);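 active = OD600 absorbance below the run mean of sample wells minus 3.6 SD, in any replicate, cut at about 0.56 in these data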;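 also: stock transfer was 300 nL into about 60 µL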
RanGTP-Impb inh: disruptors of Ran-importin-beta complex formation – biochemical, FRET, CFP-Ran, YFP-importin-beta, homogeneous, primary screen | cell-free CFP-Ran/YFP-importin-beta FRET ratio | inhibition, % (no concentration beside the values) | actives 1.1% (n = 300,000);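 active = most replicates above 15%; inconclusive = exactly half above 15%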;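 also: 0% = DMSO wells and 100% = Ran loaded with GDP instead of GTP; wells of about 40 µL received 100 nL stock; the first replicate is given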
UCH37 inh: inhibitors of human deubiquitinating enzyme UCH37; purified proteasome/UCH37, Ub-AMC cleavage fluorescence; actives 0.33% (n = 330,000); AID 588478; inhibition, % (test concentration not listed);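 active = mean of two replicates above 20%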;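 also: 0% = compound-free wells with enzyme and 100% = wells lacking proteasome; stock transfer was 100 nL into about 20 µL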
Target sequence (Q9Y5K5 whole entry, looked up): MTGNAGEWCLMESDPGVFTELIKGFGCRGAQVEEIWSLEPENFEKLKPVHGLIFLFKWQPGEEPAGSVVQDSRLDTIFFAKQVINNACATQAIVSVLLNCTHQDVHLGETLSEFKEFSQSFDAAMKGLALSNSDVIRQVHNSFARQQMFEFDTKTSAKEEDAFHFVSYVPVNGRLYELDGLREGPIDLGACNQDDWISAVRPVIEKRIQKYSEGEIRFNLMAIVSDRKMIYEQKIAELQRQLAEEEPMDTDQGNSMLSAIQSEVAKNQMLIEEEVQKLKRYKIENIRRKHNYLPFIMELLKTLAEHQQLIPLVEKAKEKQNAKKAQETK
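Material: Human UCH37 enzyme supplied as purified proteasome complex | Schedule: 30 min preincubation with enzyme, 25 min cleavage at room temperature | Detection: AMC fluorescence 355/460 nm | Measure: % inhibition of Ub-AMC cleavage fluorescence | Controls: Wells without proteasome as full block, compound-free enzyme plus substrate as uninhibited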
* = called active by the depositor; i = inactive; ? = inconclusive; · = not tested or not shown; + = active, no number; & = joins results of further samples.

The line under a structure holds: E coli growth, RanGTP-Impb inh, FGF22 binding, Vif TR-FRET, HNF4A DNA FP, UCH37 inh, MLL AF4-AF9 inh
Cc1cc(O)c(-c2ccno2)cc1Cl
  0.69, 0.9, ·, 8%, -0.8, -4.9, ·
CCCC(=O)N1CC(=O)Nc2ccc(F)cc2C1c1ccccc1 (stereo unspecified)
  0.69, -1.1, i, 5%, 3.2, 4.1, -3.4
CCOC(=O)C1C(=O)NCC1c1ccccc1 (stereo unspecified)
  0.67, -3.7, i, 21%, -4.2, 6.7, -0.3
CCc1nc2ccc(C(=O)NCc3ccc(OC)cc3)cn2c1N(CC)CCOC
  ·, ·, i, ·, 1.6, ·, 0.3
CCOc1ncccc1C(=O)OC(C)C(=O)NC1CCCCC1 (stereo unspecified)
  0.67, ·, i, 2%, 0.5, 1.1, 0.9
O=C(O)c1ccc(-c2ccc(O)c(F)c2)cc1
  ·, 1.7, ·, -1%, 1.9, ·, 7.8
COc1ccc(CCN(C)Cc2cccc3ccccc23)cc1OC
  0.65, 0.0, i, ·, -3.9, 2.2, 2.6
O=C(CSc1nnc2ccccn12)NC(=O)NC1CCCC1
  0.68, 5.4, i, 16%, 0.0, 5.1, 0.5
Cc1ccc(N(CC(O)CN2C(=O)NC(C)(C)C2=O)S(=O)(=O)c2ccc([N+](=O)[O-])cc2)cc1 (stereo unspecified)
  0.7, -1.3, i, ·, -1.4, 3.7, 4.4
Cc1nn(C)cc1/C=N/NC(=O)C(C)(C)Oc1ccc(Cl)cc1
  ·, -1.6, ·, -2%, 2.9, ·, ·
Cc1nnc(SCC(=O)NCc2ccccc2Cl)n(N)c1=O
  0.62, 8.9, i, ·, -2.8, 0.4, -0.8
Cn1c(=O)c2c(nc(CN3CCN(c4ccccc4)CC3)n2CCCc2ccccc2)n(C)c1=O
  0.77, -0.2, ·, ·, ·, 0.4, ·
CCCCCC(=O)Nc1cc(S(=O)(=O)O)cc2cc(S(=O)(=O)O)cc(O)c12
  ·, ·, i, ·, -94, ·, -10.0
Nc1nc(-c2ccc(-n3nncc3-c3ccco3)cc2)cs1
  0.7, 1.2, ·, ·, ·, -4.8, ·
Cc1cc(C)n2c(SCC(=O)NC3CCCC(C)C3C)nnc2n1 (stereo unspecified)
  0.66, 2.1, i, -11%, -2.2, -3.8, -1.2
O=C(C1COc2ccccc2O1)N1CCN(c2ccc(F)cc2)CC1 (stereo unspecified)
  0.7, 8.5, ·, 13%, 3.2, -3.0, -4.1
COc1ccc(N2C(=O)C3CCCN3C2c2ccccc2Cl)cc1 (stereo unspecified)
  0.71, 4.7, i, 5%, 3.0, 4.1, 1.3
O=C(O/N=C\c1ccc(N2CCOCC2)c([N+](=O)[O-])c1)c1ccc(F)cc1
  ·, 0.3, ·, 31%, -5.2, ·, ·
Cc1c(Cl)cccc1NC(=O)CSc1nnc(C)n1-c1ccccc1
  0.7, -0.4, ·, 70%, -3.4, 0.3, ·
CC(Oc1cccc(Br)c1)C(=O)Nc1cccc(S(=O)(=O)N2CCOCC2)c1 (stereo unspecified)
  0.69, ·, i, ·, 0.3, 0.7, -1.9
O=S(=O)(c1ccc2c(c1)OCO2)N1CCN(c2nnnn2-c2ccccc2)CC1
  0.74, -0.3, ·, 19%, 3.4, 1.8, ·
O=c1[nH][nH]c2c1C(c1ccc(Cl)c(Cl)c1)OC(CCc1ccccc1)C2 (stereo unspecified)
  ·, ·, i, ·, -4.9, ·, 0.1
COc1ccccc1CNC(=O)COC(=O)c1nccnc1N
  0.7, 3.8, i, -2%, -1.2, -389, -1.5
Cc1cc(C)n2cc(CSc3nc4ccccc4s3)nc2n1
  0.67, ?, ·, ·, 2.6, -0.7, ·
CC(C)(C)c1nc2ccc(NS(=O)(=O)c3ccc(F)c(F)c3F)cc2[nH]1
  0.55, -0.6, i, 1%, -4.2, -1.7, 4.3
O=C(Nc1cc(Cl)ccc1-n1cncn1)c1ccc(Br)o1
  0.67, -2.3, +, -61%, 2.0, -1.9, -19
CCOc1ccccc1NC(=O)C(=O)NCCC1=CCCCC1
  0.7, -1.4, i, -4%, 1.6, 3.9, -4.0
CCOc1ccc(C2c3c(oc4ccccc4c3=O)C(=O)N2CCCN2CCOCC2)cc1 (stereo unspecified)
  0.79, 4.1, ·, >100µM*, -0.4, -0.9, ·
Fc1cccc(CSc2ncnc3c2ncn3C2CCCCO2)c1 (stereo unspecified)
  0.69, ·, ·, -4%, 1.6, 3.3, 5.3
CCOc1ccc(-c2[nH]ncc2Oc2cccc(OC)c2)c(O)c1
  0.65, 4.2, ·, -1%, -3.3, 2.9, ·

Entries above that bear a hit mark in Vif TR-FRET:
Structure | RanGTP-Impb inh | FGF22 binding | Vif TR-FRET | HNF4A DNA FP | UCH37 inh | MLL AF4-AF9 inh
CCOc1ccc(C2c3c(oc4ccccc4c3=O)C(=O)N2CCCN2CCOCC2)cc1 (stereo unspecified) | 4.1 | · | >100µM* | -0.4 | -0.9 | ·

The list continues:
The line under a structure holds: E coli growth, RanGTP-Impb inh, FGF22 binding, Vif TR-FRET, HNF4A DNA FP, UCH37 inh, MLL AF4-AF9 inh
CC1=NN(C(=O)c2c(Br)c(C)nn2C)C(O)(C(F)(F)F)C1 (stereo unspecified)
  0.68, 2.6, i, 0%, -2.4, 4.2, 0.0
Cc1ccc(Nc2nc(N)c([N+](=O)[O-])c(NCc3ccco3)n2)cc1C
  0.68, -3.3, ·, 2%, 0.5, 5.4, ·
CCOc1ccc2nc(N3CCC(C(=O)N4CCN(C(=O)c5ccco5)CC4)CC3)sc2c1
  0.77, 3.7, ·, 2%&1%, 0.0, 2.9, ·
CCOC(=O)N1CCc2c(sc3nc(SC(C)C)n(N)c(=O)c23)C1
  0.66, 6.0, ·, 15%, 3.0, 4.8, ·
CCc1cccc(C)c1NC(=O)C1CCCN1C(=O)NCc1ccccc1 (stereo unspecified)
  0.64, 2.7, i, ·, -1.3, 1.4, -3.3
COc1ccc(N(CC(=O)NC2CCCC2)C(=O)Cn2nnc(-c3ccc(C)cc3)n2)cc1
  0.72, 0.0, ·, 10%&4%, -2.9, 0.5, ·
CN1/C(=C\C(=O)c2cccs2)C(C)(C)c2ccccc21
  0.67, 18*, ·, -4%, -2.5, -17, ·
O=C(c1ccccc1)N1CCSC1=S
  0.68, 1.1, ·, -2%, -0.1, -2.7, ·
Cc1cc2nc(C3CCCCC3)c(Cc3cccc(F)c3)n2c(C)c1Br
  ·, ·, i, ·, 3.0, ·, -0.5
CCCc1cc(C(=O)NC(C)C2CCCO2)cs1 (stereo unspecified)
  0.7, 1.9, i, -4%, -0.8, -0.4, -0.2
O=C(Nc1ccc(F)cc1F)c1cccc(C(=O)Nc2ccc(F)cc2F)n1
  0.71, 2.2, i, ·, -3.3, -1.9, -2.0
CCOC(=O)c1c(NC(=O)Nc2ccc(Cl)cc2)sc(C)c1C
  0.71, 2.1, ·, -7%, -1.4, -11, ·
[O-]/C(=C(\C(=S)Nc1cccc2ccccc12)[n+]1ccccc1)c1cccs1
  0.71, 1.3, i, -2%, 10, 6.3, 18
COC(CNC(=O)c1cc(S(=O)(=O)N2CCc3ccccc32)ccc1F)OC
  0.69, 1.4, i, 2%, -5.0, 1.5, -6.5
COc1ccc2o/c(=N\O)c(C(=O)Nc3ccccc3OC)cc2c1
  ·, -50, ·, 10%, 1.2, ·, ·
COc1cc2c(cc1OC)C(c1ccsc1)CC(=O)N2 (stereo unspecified)
  0.7, -3.3, ·, 10%, 0.8, -2.0, ·
O=C(c1cc(-c2ccc(O)cc2)on1)N1CCOCC1
  0.67, 1.7, i, 6%, 1.9, 2.4, 3.5
COc1cc([C@@H]2c3cc4c(cc3[C@H](O)[C@H]3COC(=O)[C@H]23)OCO4)cc(OC)c1OC
  ·, 0.4, i, ?, 0.1, 4.8, -0.9
O=C(NCC(=O)N1CCc2ccccc2C1)c1ccc(Cl)cc1Cl
  0.65, 5.8, i, -3%, 0.3, -1.2, -5.2
COc1ccc(/C(C)=N/Nc2ncc(Cl)cc2Cl)c(O)c1
  ·, 3.7, ·, 31%, -4.4, ·, 5.3
CCCNC(=O)C1(C)CCN(Cc2noc(-c3ccccc3OC)n2)C1 (stereo unspecified)
  ·, ·, i, ·, 6.0, ·, -2.3
O=c1c(N2CCOCC2)coc2ccccc12
  0.72, 2.6, i, 0%, 3.8, 1.3, -3.7
Cc1n[nH]c(C)c1CCNC(=O)C1CCC(=O)N(CCc2cccc(F)c2)C1 (stereo unspecified)
  0.68, 5.8, i, ·, -0.6, 0.2, -0.3
C[C@H](CO)N1C[C@H](C)[C@@H](CN(C)C(=O)Nc2ccc(C(F)(F)F)cc2)Oc2c(NC(=O)Cc3ccccc3)cccc2C1=O
  0.7, ·, i, ·, -2.0, 0.1, -5.3
Cc1ccc(NS(=O)(=O)c2ccc(OCC(=O)Nc3cccc([N+](=O)[O-])c3)c(C)c2)cc1
  0.72, 5.2, ·, 2%, -6.2, 0.7, ·
Cc1c(NC(=O)c2cc3c(=O)n4ccccc4nc3s2)c(=O)n(-c2ccccc2)n1C
  0.73, -0.2, ·, -1%, -0.1, -8.5, ?
Cn1c(=O)c2[nH]c(Nc3ccccc3)nc2n(C)c1=O
  0.69, 2.6, ·, 19%, -2.3, 6.2, ·
C/C(=C/Cc1c(O)cc2oc(C)cc(=O)c2c1O)COC1OC(CO)C(O)C(O)C1O (stereo unspecified)
  0.76, ·, i, 10%, -0.1, 1.9, 0.2
CCNC(=O)C1CCCN(Cc2ccc(OCc3ccccc3)cc2)CC1 (stereo unspecified)
  ·, ·, i, ·, 9.2, ·, 4.4
O=C(CNc1cccc(S(=O)(=O)N2CCCC2)c1)Nc1ccc(F)cc1F
  0.69, ·, i, -7%, -1.8, 2.6, -0.3
Cc1ccc(CNC(=O)COc2cccc3c2OC(C)(C)C3)cc1
  0.68, ·, ·, 2%, -2.5, 2.1, -2.2
CCOC(=O)C1=C(CSc2nc(-c3ccccc3)ccc2C#N)OC(N)=C(C#N)C1c1cccnc1 (stereo unspecified)
  0.79, 8.8, ·, 9%, 32, -11, ·
O=C(NCc1cccs1)C(NS(=O)(=O)c1cccc2nsnc12)c1ccccc1 (stereo unspecified)
  0.72, 1.2, ·, -1%, -3.7, 1.7, ·
CCOc1cc(-c2nc(-c3cc(OC)c(OC)c(OC)c3)no2)cc(OCC)c1OCC
  0.8, 0.5, ·, ·, ·, 1.5, ·
O=C(CSc1nc(Nc2ccccc2)nc(N2CCOCC2)n1)Nc1ccc(Br)cc1F
  0.73, 0.5, i, -2%, 4.4, 1.2, 0.6
O=C(c1cc(F)ccc1F)C1CCCN(C(=O)CCc2cnccn2)C1 (stereo unspecified)
  0.68, -1.2, i, 2%, -0.1, 1.0, -0.9
COc1cccc(NC(=S)NC(=O)Cc2ccc(Cl)cc2)c1
  0.71, 2.2, ·, ·, 1.4, 5.2, -0.3
Cn1nc(C(F)(F)F)c2cc(C(=O)NC3CC3)sc21
  0.74, 7.1, ·, 66%, 2.3, -1.0, ·
C=CCNC(=O)C1CCN(S(=O)(=O)c2ccc(Br)cc2)CC1
  0.64, 1.0, ·, -2%, -0.1, 6.1, ·
CCC(C)(C)c1nnc(NC(=O)c2ccc([N+](=O)[O-])cc2)s1
  0.72, 3.3, ·, 2%, 1.3, 2.9, ·
CC(c1ccncn1)N(C)Cc1nc(Cc2ccccc2F)no1 (stereo unspecified)
  0.69, 1.9, i, ·, -4.2, 0.2, 2.8
COc1ccc(-c2csc(NCCc3nc4cc(C(=O)NCCCO)ccc4n3Cc3ccc(C)cc3)n2)cc1
  0.72, -0.9, i, ·, 4.4, 1.3, ·
Cc1noc(C)c1C(=O)N1CCN(CCc2ccccc2)CC1
  0.7, 1.8, ·, 0%, 2.5, 4.9, ·
Cc1ccc(S(=O)(=O)CC(=O)N2CCN(c3ccc([N+](=O)[O-])cc3)CC2)cc1
  0.71, ·, i, -9%, 6.5, 6.2, 2.4

Bioassay records (PubChem BioAssay)

An excerpt; rates above refer to the full screens.
